GIV Gai3 FP: blocks GIV peptide binding to rat Galpha-i3; P08753; Galpha-i3/FITC-GIV peptide fluorescence polarization, 90 min; hits give low values; scaled: aluminum fluoride 0%, vehicle 100%; percent of control (FP), % (no concentration beside the values); 210,000 compounds, 0.42% hits;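 active = replicate mean at 85% of control or lower, very high polarization wells dropped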;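 also: wells of about 15 µL received 100 nL stock; the first replicate is given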
Target sequence (P08753 whole entry, looked up): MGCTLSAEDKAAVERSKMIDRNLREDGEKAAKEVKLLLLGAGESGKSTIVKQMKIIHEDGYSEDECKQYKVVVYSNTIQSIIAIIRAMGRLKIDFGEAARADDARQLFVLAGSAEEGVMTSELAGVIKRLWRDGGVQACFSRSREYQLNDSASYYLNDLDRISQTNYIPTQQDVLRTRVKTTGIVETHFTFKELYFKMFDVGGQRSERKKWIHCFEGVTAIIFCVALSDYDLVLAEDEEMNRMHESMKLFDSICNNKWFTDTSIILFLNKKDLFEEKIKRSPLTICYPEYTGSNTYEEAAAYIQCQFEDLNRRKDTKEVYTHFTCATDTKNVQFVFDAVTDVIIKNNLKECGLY
Sa growth 42C: S. aureus growth inhibition; S. aureus RN4220 growth, OD600, 20 h, 42 °C; hits give low values; relative growth, % (test concentration not listed); 170,000 compounds, 0.53% hits; AID 720641;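 active = growth at 42 °C up to 50% and 20 or more points under that at 30 °C, or under 10% at both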;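 also: 300 nL library stock went into each well; scaled to the means of positive and negative controls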
HCMV NEC inh: cytomegalovirus nuclear egress complex inhibition | HTRF UL50-UL53 interaction, normalized percent inhibition | inhibition, % (test concentration not listed) | 190,000 compounds, 0.15% hits;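 active = both replicates at 50% or more, plus weaker picks with an unusually low signal ratio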;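 also: stock transfer was 100 nL into about 20 µL; 0% = negative control wells and 100% = wells with untagged competitor protein; inactives centre near -12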
Sa growth 42C second temp: recorded beside Sa growth 42C, whose call it bears; relative growth, %; measured here: growth at 30 °C;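 optical density after 20 h as mean of two plates; 100% = untreated growth and lower means inhibition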
Active calls of the source: *; . = no result given; & = joins results of further samples.

Start of the data: the first 19 records, to show the layout:
SMILES,GIV Gai3 FP,Sa growth 42C,Sa growth 42C second temp,HCMV NEC inh
O=c1c2sccc2nc(SCc2ccccc2)n1CCc1ccccc1,101,94,95,.
N#Cc1ccc(Cl)cc1N=Cc1ccco1,.,84,98,0
COC(OC)c1nc(SCC(=O)Nc2ccc(C(C)C)cc2)ncc1C(=O)O,100,109,83,-29
CCOC(=O)c1c(C)c(S(=O)(=O)NCC2CCCO2)c(C)n1C (stereo unspecified),106,.,.,-7
CC(C)CNC(=O)C1CCN(c2cc(-c3ccc(F)cc3)ncn2)CC1,100,.,.,-23
COc1cc2[nH]c(=O)n(CCCC(=O)NCCCN3CCN(c4cccc(Cl)c4)CC3)c(=O)c2cc1OC,104,.,.,-14
Cc1cc(C)c2c(n1)sc1c(=O)n(/N=C/c3ccccc3)cnc12,113,112,93,-21
CCc1ccnc(NS(=O)(=O)c2ccccc2)c1,105,102,90,4
C=CCOc1ccc(C2CC(=O)Nc3nc(N)[nH]c(=O)c32)cc1 (stereo unspecified),103,.,.,3
CCOC(=O)c1c(C)n(C)c2ccc(OC(=O)OC)cc12,101,91,85,-17
C=CCn1c(Sc2ncnc3c2sc(=S)n3CC=C)nnc1-c1ccccc1,100,42,27,39
CCN(c1ccccc1)S(=O)(=O)c1ccc(NC(=O)c2nc(SC(C)C)ncc2Cl)cc1,98,99,89,-30
COc1ccc(N(Cc2nc3nc(C)c(Cl)c(C)n3n2)C(=O)C(C)C)cc1,102,.,.,-35
O=C(COc1ccccc1)OCC(=O)N1CCCc2ccccc21,.,101,92,-6
Cc1cc(C)nc(/N=C(/N)NO)n1,103,134,95,.
Cc1ccc2c(C)nc(NC3=NC(C(=O)Nc4ccc(Br)cc4)CC(=O)N3)nc2c1 (stereo unspecified),104,.,.,6
CCc1ccc2c(c1)=C(c1[nH]c(=S)[nH]c1O)C(=O)N=2,107,77,65,.
O=S(=O)(c1ccc(OC(F)(F)F)cc1)N1CCCC(c2ccccc2)C1 (stereo unspecified),102,95,85,.
CCOc1ccc(C(=O)Nc2ccc3c(c2)N(S(=O)(=O)c2ccccc2)CCC3)cc1OCC,110,.,.,-30

The whole of this part, from the start:
SMILES,GIV Gai3 FP,Sa growth 42C,Sa growth 42C second temp,HCMV NEC inh
O=c1c2sccc2nc(SCc2ccccc2)n1CCc1ccccc1,101,94,95,.
N#Cc1ccc(Cl)cc1N=Cc1ccco1,.,84,98,0
COC(OC)c1nc(SCC(=O)Nc2ccc(C(C)C)cc2)ncc1C(=O)O,100,109,83,-29
CCOC(=O)c1c(C)c(S(=O)(=O)NCC2CCCO2)c(C)n1C (stereo unspecified),106,.,.,-7
CC(C)CNC(=O)C1CCN(c2cc(-c3ccc(F)cc3)ncn2)CC1,100,.,.,-23
COc1cc2[nH]c(=O)n(CCCC(=O)NCCCN3CCN(c4cccc(Cl)c4)CC3)c(=O)c2cc1OC,104,.,.,-14
Cc1cc(C)c2c(n1)sc1c(=O)n(/N=C/c3ccccc3)cnc12,113,112,93,-21
CCc1ccnc(NS(=O)(=O)c2ccccc2)c1,105,102,90,4
C=CCOc1ccc(C2CC(=O)Nc3nc(N)[nH]c(=O)c32)cc1 (stereo unspecified),103,.,.,3
CCOC(=O)c1c(C)n(C)c2ccc(OC(=O)OC)cc12,101,91,85,-17
C=CCn1c(Sc2ncnc3c2sc(=S)n3CC=C)nnc1-c1ccccc1,100,42,27,39
CCN(c1ccccc1)S(=O)(=O)c1ccc(NC(=O)c2nc(SC(C)C)ncc2Cl)cc1,98,99,89,-30
COc1ccc(N(Cc2nc3nc(C)c(Cl)c(C)n3n2)C(=O)C(C)C)cc1,102,.,.,-35
O=C(COc1ccccc1)OCC(=O)N1CCCc2ccccc21,.,101,92,-6
Cc1cc(C)nc(/N=C(/N)NO)n1,103,134,95,.
Cc1ccc2c(C)nc(NC3=NC(C(=O)Nc4ccc(Br)cc4)CC(=O)N3)nc2c1 (stereo unspecified),104,.,.,6
CCc1ccc2c(c1)=C(c1[nH]c(=S)[nH]c1O)C(=O)N=2,107,77,65,.
O=S(=O)(c1ccc(OC(F)(F)F)cc1)N1CCCC(c2ccccc2)C1 (stereo unspecified),102,95,85,.
CCOc1ccc(C(=O)Nc2ccc3c(c2)N(S(=O)(=O)c2ccccc2)CCC3)cc1OCC,110,.,.,-30
COCCn1c(C)cc(C(=O)COC(=O)c2cc(OC)c(OC)cc2OC)c1C,.,85,95,-4
COC(=O)c1ccc(CSc2nc3c(c(=O)[nH]2)CCC3)cc1,101,106,86,-12
O=C(CCOc1ccccc1F)N1CCc2ccccc21,.,81,90,-20
O=C(Nc1ccn(Cc2ccccc2F)n1)Nc1ccc(F)cc1F,98,108,97,-10
CCOC(=O)Cn1c(=O)c(-c2ccccc2NCc2ccccc2)nc2cc3ccccc3cc21,103,.,.,-8
C=CCC1C=C(C)CC(CC=C)N1CC(O)C(F)(F)C(F)(F)C(F)(F)F (stereo unspecified),110,97,86,11
CCn1c(=S)[nH]c2nc(N3CCC(C)CC3)sc2c1=O,108,.,.,-13
O=C(c1ccc2c(c1)OCCCO2)N1CCCCC1,97,93,81,-21
O=C(/C=C/c1ccccc1)NC(=S)Nc1ccc(-c2nc3ccccc3o2)c(O)c1,107,108,98,-10
Cc1cc(Cl)ccc1NS(=O)(=O)c1cc2[nH]c(=O)c(=O)[nH]c2cc1C,97,103,91,.
Cc1cccc2c(=O)c(C(=O)NCc3cccs3)c[nH]c12,103,101,99,-17
CC(=O)OCC1OC(n2ccc(=O)[nH]c2=O)C(OC(C)=O)C1OC(C)=O (stereo unspecified),.,117,105,-16
C/C(=N\NC(=O)Cc1ccccc1)c1cccnc1,104,102,99,-22
Cc1ccc(NC(=O)CSc2cn(CC(=O)N3CCCCCC3)c3ccccc23)cc1,103,106,90,.
CC1(C)CC2CC(C)(CN2C(=O)c2cc3ncc(Br)cn3n2)C1 (stereo unspecified),122,98,98,-15
COc1cc(C2C(C(=O)Nc3ccccn3)=C(C)NC3=C2C(=O)CCC3)cc(OC)c1OC (stereo unspecified),99,99,93,-20
CS(=O)(=O)c1ccc(C(=O)OCc2ccccc2C#N)cc1,.,94,105,3
O=C(Cc1ccccc1)N/N=C/c1ccccc1C(=O)O,100,94,88,-24
Cc1cccc(-c2nc(CS(=O)CC(=O)NCC3CCCO3)c(C)o2)c1 (stereo unspecified),101,103,86,-18
Cc1onc(C(=O)N(C)C)c1-c1ccnc(=S)[nH]1,102,95,90,-3
O=C(CCN1C(=O)/C(=C/c2ccc(Cl)cc2Cl)SC1=S)Nc1cc([N+](=O)[O-])ccc1O,97,.,.,-15
CC1(C)NN=C(N)SC1=O,103,89,94,10
CCn1cc(C(=O)NCc2ccc(Cl)cc2)c(=O)c2cc(S(=O)(=O)N3CCc4ccccc4C3)ccc21,97,102,87,-15
O=C(Nc1ccc(F)cc1)Nc1nnc(SCC(=O)N2CCCCC2)s1,100,116,96,.
COc1ccc(C(=O)NCc2csc(-c3cccs3)n2)cc1OC,105,94,88,-36
O=C(c1ccco1)N(Cc1ccccc1)c1nc2c(F)cc(F)cc2s1,104,100,94,-25
O=C1CCCC(=O)C1Sc1ccc(Cl)cc1,.,103,79,-12
COC(=O)C1C(=O)NC(SCC(=O)Nc2cccc(OC)c2)=C(C#N)C1c1ccc(OC)cc1 (stereo unspecified),107,98,79,-15
O=C1c2ccccc2C(=O)N1Cc1ccc(C2Nc3ccccc3-c3cccn32)o1 (stereo unspecified),106,93,91,-25
COc1cccc(-c2nn(C)c3sc(C(=O)N4CCOCC4)cc23)c1,96,94,92,2
c1ccc(-c2cc(CSc3nc4ccccc4[nH]3)on2)cc1,100,79,71,.

(further entries)
SMILES,GIV Gai3 FP,Sa growth 42C,Sa growth 42C second temp,HCMV NEC inh
CS(=O)(=O)N1CCCC(C(=O)N2CCCCC2)C1 (stereo unspecified),103,86,85,.
CCOC(=O)c1cc(NC(=O)N(Cc2ccccc2Cl)C2CCN(C)CC2)c(C)nc1C,97,.,.,-4
COc1ccccc1N1CCN(C(=O)c2sc3nc4n(c(=O)c3c2C)CCC4)CC1,96,94,95,-12
COc1ccc(C)cc1N(C)C(=O)c1sc2nc3n(c(=O)c2c1C)CCCCC3,96,79,95,-5
CCc1ccc(C2CC(=O)Nc3cc4c(cc32)OCO4)cc1 (stereo unspecified),106,105,91,-7
O=C1CC(Sc2ccccc2)C(=O)N1c1ccccc1 (stereo unspecified),113,84,46,4
CC(C)CNc1cc(NC2CCCCC2)c2c3c(onc13)-c1ccccc1C2=O,119,118,80,-10
O=C1/C(=C/c2ccco2)SC(=S)N1CN1CCN(c2ccccc2)CC1,110,52,8,-90
CC1=CC(C)=NC2=C(c3ccccc3)SC(=C3C(=O)c4ccccc4C3=O)N12,101,110,79,-30
N/C(=N/O)C1COc2ccccc2O1 (stereo unspecified),96,106,97,5
CCn1c(CSC/C=C/c2ccccc2)nc2cc(S(=O)(=O)N3CCOCC3)ccc21,.,95,95,-28
CC1CCCCC1NC(=O)NC(=O)Cn1cc(Br)ccc1=O (stereo unspecified),.,71,83,-37
C=CCn1c(SCC(=O)NCCc2ccccc2)nc2sc3c(c2c1=O)CCCC3,107&103,92,90,-6
O=C(Nc1ccccc1)Nc1ccc2c(c1)OCO2,102,98,76,.
ONC1=NCCCCC1,.,86,95,-15
COc1cccc(Cn2c(SCc3ccc(C(=O)NC4CCCC4)cc3)nc3ccncc32)c1,106,100,82,.
CCOc1ccccc1NC(=O)N1CCc2c([nH]c3ccccc23)C1c1cccnc1 (stereo unspecified),105,.,.,-22
O=C(O)CC(CC(=O)N1CCN(c2ncccn2)CC1)c1ccccc1 (stereo unspecified),103,98,95,-8
O=S(=O)(NCCc1ccccn1)C1=Cc2ccccc2CC1,.,79,87,-37
O=C(O)CNC(=O)CSc1ccccc1,104,128,98,-7
Cc1ccc(-c2nnc(OCc3cccnc3)c3ccccc23)cc1,95,113,61,.
Cc1ccc(S(=O)(=O)N2CCN(CCNC(=O)C3CCCCC3)CC2)cc1,105,.,.,-12
CNC(=O)c1ccc(-c2nn(C)c(=O)c3ccccc23)cc1,105,103,101,5
O=C(OCc1cc(=O)n2nc(-c3cccs3)sc2n1)c1ccccc1,107,71,74,.
CC1CCC2(CC1)NC(=O)N(CN1CCCC1)C2=O (stereo unspecified),.,83,91,-30
CC(=O)Nc1ccc(NC(=O)C2CCN(c3cnccn3)CC2)cc1,101,91,83,-31
CC(C)CC(C(=O)O)N1C(=O)c2ccccc2C1=O (stereo unspecified),100,112,94,.
CCOC(=O)CSc1cc(C)nc(SCC(=O)OCC)n1,.,115,98,16
O=C1CCCN1Cc1cc(Cl)c2cccnc2c1O,102,.,.,-9
Cc1nn2c(c1-c1ccccc1)NC1=C(C(=O)CCC1)C2c1cccnc1 (stereo unspecified),105,85,94,-1

Compound profiles, from the list above. Values in the order: GIV Gai3 FP, Sa growth 42C, Sa growth 42C second temp, HCMV NEC inh
Shown for CC(=O)Nc1ccc(NC(=O)C2CCN(c3cnccn3)CC2)cc1 : 101, 91, 83, -31
Shown for CC(C)CC(C(=O)O)N1C(=O)c2ccccc2C1=O (stereo unspecified) : 100, 112, 94, .
Shown for CNC(=O)c1ccc(-c2nn(C)c(=O)c3ccccc23)cc1 : 105, 103, 101, 5
Shown for CCOC(=O)CSc1cc(C)nc(SCC(=O)OCC)n1 : ., 115, 98, 16

New compounds follow:
SMILES,GIV Gai3 FP,Sa growth 42C,Sa growth 42C second temp,HCMV NEC inh
Cc1cccc(NC(=O)c2ccccc2C(=O)O)c1,115,107,97,-7
CCN(Cc1ccccc1)C(=O)CSc1nccc(=O)[nH]1,.,98,93,-11
CCCCC1(Cc2ccccc2)C(=O)Nc2ccccc2C1=O (stereo unspecified),102,81,79,12
CSc1cccc(NC(=O)CSc2ccc(C(F)(F)F)cn2)c1,102,79,84,-9
CCCCC(CC)CNc1nc(=S)[nH]c2ccccc12 (stereo unspecified),101,96,79,.
Cc1ccc(CS(=O)(=O)CCC(=O)NCC2CCCO2)cc1 (stereo unspecified),101,116,83,-10
Cc1ccc(CSc2nnc(-c3ccc(C)cc3)n2N)cc1,.,80,96,-28

High-throughput results deposited in PubChem by ICCB-Longwood Screening Facility, Harvard Medical School.
